VACV Venus inh – vaccinia inhibition (Venus reporter); AID 720580; Potency, µM (titrated, usually from 36.5 µM), inactives show at the highest dose activity change, negative = inhibition, most hits filed as inhibitors; 330,000 tested, 0.46% active; Vaccinia virus Venus reporter expression, fluorescence; active means well fitted inhibition curve with a large enough effect; inconclusive means small, poorly fitted or top-dose-only effect; inactive means no such curve, though single readings can be large or run the other way; tested in A549 cells; also: nearly all actives have a fitted effect of over 30% in size; inactives centre near -10
Vaccinia mCherry – inhibitors of vaccinia virus infection (mCherry reporter signal) | Vaccinia virus mCherry reporter infection, fluorescence; about a quarter of the inactives have no number | Potency, µM (titrated, usually from 36.5 µM), for inactives: at the top dose activity change, negative = inhibition, hits mostly inhibitors | 310,000 tested, 0.63% active; active = well fitted inhibition curve with a large enough effect; inconclusive = small, poorly fitted or top-dose-only effect; inactive = no such curve, though single readings can be large or run the other way; tested in A549 cells; also: nearly all actives have a fitted effect of over 35% in size; inactives centre near -10
Starred values were filed as active, the others as inactive; i = inactive; u = inconclusive; x = not tested or not shown; [ ] = another dose, or the depositor's remark. % is scaled to controls: 0 for no effect and ±100 for the full control effect; potency is read from the fitted curve at half-maximal effect.

smiles | VACV Venus inh | Vaccinia mCherry
COc1ccc(N(CC(=O)N2CCN(c3ccccc3)CC2)S(=O)(=O)c2ccc(C)cc2)cc1 | -4.3% | -7.9%
O=C(Cn1c(=O)nc(-c2ccccc2)c2ccccc21)NCc1ccc(F)cc1 | -11.8% | i
O=C(COc1ccc(S(=O)(=O)NC2CCCCC2)cc1)NCCC1=CCCCC1 | -29.9% | x
O=[N+]([O-])c1ccccc1S(=O)(=O)n1nnc2ccccc21 | -10.8% | -0.1%
O=C(O)c1cccc(S(=O)(=O)Nc2ccc(Oc3ccccc3)cc2)c1 | 1.5% | -15.2%
C=CCNc1ncnc2c1ncn2[C@H]1CN(CCN2CCOCC2)C[C@@H](CO)O1 | 2.0% | -3.3%
COC(=O)C1=C(c2ccc(OC(F)(F)F)cc2)C[C@@H]2CC[C@H]1N2C(=O)NC1CC1 | -15.7% | -24.0%
CCOc1ccc(CN2C(=O)CCC2(C)C(=O)NCc2cccnc2)cc1 (configuration not stated) | 6.9% | -4.4%

Filtered by structure, the entries above with four or more nitrogen atoms (two)
smiles | VACV Venus inh | Vaccinia mCherry
O=[N+]([O-])c1ccccc1S(=O)(=O)n1nnc2ccccc21 | -10.8% | -0.1%
C=CCNc1ncnc2c1ncn2[C@H]1CN(CCN2CCOCC2)C[C@@H](CO)O1 | 2.0% | -3.3%

(further entries)
smiles | VACV Venus inh | Vaccinia mCherry
C=CCNC(=O)c1onc(CSc2nc3ccccc3[nH]2)c1C(=O)NCC=C | -7.5% | i
Cc1cccc(N2C(=O)CC(Sc3ncn[nH]3)C2=O)c1 (configuration not stated) | -10.2% | -2.4%
CCCCCCC1CC(CSc2ncn[nH]2)OC1=O (configuration not stated) | -29.7% | x
COc1cc(-n2c(C)nc3cc(C(=O)NCc4ccco4)ccc32)cc(OC)c1OC | u | x
Cc1ccc(C(=O)CN2C(=O)C(=O)N(Cc3ccccc3)C2=O)cc1 | 4.8% | -8.3%
CC1=C(C(=O)N(C)C)CC(CC(=O)NC2CC2)C(=O)N1CCC1=CCCCC1 (configuration not stated) | -20.7% | i
Cc1ccccc1NP(=O)(c1ccccc1)c1nc2ccccc2s1 (configuration not stated) | -6.0% | -14.0%
Cc1nc(SCC(=O)N2CCOCC2)c2c(=O)n(C)c(=O)n(C)c2n1 | 6.0% | -0.9%
CC(=O)N1CCc2c(sc3c2c(=O)n(-c2ccc(F)cc2)c(=O)n3Cc2ccc(C#N)cc2)C1 | 5.2% | -8.4%
CC1(C(=O)Nc2ccc3c(c2)OCCO3)CCC(=O)N1C1CCN(Cc2ccccc2)CC1 (configuration not stated) | 5.2% | 20.2%
O=C(O)c1c(-c2ccccc2)oc2ccc(OCc3ccc(Cl)c(Cl)c3)cc12 | -6.4%[7.34 µM] | -6.4%[7.34 µM]
COc1ccc(-c2ccc([C@H]3[C@@H]4C=CCC[C@@]4(C)C(=O)N3Cc3ccccc3)c(F)c2)cc1OC | u | u
Cc1nn(CCC(=O)Nc2ccccc2Br)c(=O)c2nn(-c3ccccc3)c(C)c12 | -13.6% | -15.3%
COc1cc(S(=O)(=O)N2CCN=C2c2ccccc2)ccc1Cl | -15.4% | -16.4%
COC(=O)c1c(C)noc1-c1cc(C)on1 | -18.7% | x
Cc1cccc(NC(=O)CCC2CCN(C(=O)C3CC=CCC3)CC2)c1 (configuration not stated) | -10.3% | -12.6%
CSc1nsc(SCC(=O)N2CCCc3ccccc32)n1 | -12.3% | x
CC1Cn2c(nnc2-c2cccc(Cl)c2)S1 (configuration not stated) | -7.9% | -7.1%
CCCCN(C(=O)COC(=O)COc1c(C)cc(C)cc1C)c1c(N)n(CCC)c(=O)[nH]c1=O | -11.0% | -22.7%
O=C(Nc1ccccc1)OCCc1ccccn1 | -1.5% | -4.7%
COc1ccccc1C(=O)N1CCN=C1SC | -4.2% | -9.3%
CCN1CCN(S(=O)(=O)c2ccc(C)c([N+](=O)[O-])c2)CC1 | -6.0% | -10.3%
CCS(=O)(=O)c1ncc(Cl)c(C(=O)NCc2ccccc2)n1 | -10.0% | -13.9%
CC(C)c1ccc(CNC(=O)CCc2ccccc2)cc1 | -3.3% | -7.5%
CCOC(=O)c1c(-c2ccc(C)o2)csc1NC(=O)CN1CCN(CC)CC1 | -22.8% | -11.5%
COC(=O)c1ccc2c(=O)n(CCCCCC(=O)NCCc3ccc(Cl)cc3)c(=O)[nH]c2c1 | -12.9% | -10.1%
CCCCCN(C(=O)CCC(=O)OCCOc1cccc(C)c1)c1c(N)n(CCCC)c(=O)[nH]c1=O | -16.6% | -14.8%
Cc1ccc(S(=O)(=O)N[C@@H](CC(C)C)C(=O)N2CCC(C(=O)N[C@H](C(=O)O)C(C)C)CC2)cc1 | u | u
COc1ccccc1N1CCN(c2ncnc3c2nnn3C)CC1 | -6.2% | -4.5%
O=C(Nc1ccnn1C1CCN(Cc2ccccc2)CC1)C1CCOC1 (configuration not stated) | -14.1% | i
CCC(Sc1nc2ccsc2c(=O)n1Cc1ccc(C(=O)O)cc1)C(=O)Nc1ccc(Cl)cc1 (configuration not stated) | -9.8% | -6.4%
CN(CC(=O)Nc1ccccc1Cl)C(=O)c1cccc(S(=O)(=O)N2CCN(Cc3ccccc3)CC2)c1 | -28.0% | -25.6%
CCOC(=O)c1cc2n(c1N)-c1ccccc1C2=O | 6.7% | i
NC(N)=N/N=C\c1c(Cl)cccc1Cl | -18.8% | -8.7%
CC(=O)O[C@H]1CC(C)(C)C(=C=C/C(C)=C/C=C/C(C)=C/C=C/C=C(C)/C=C/C=C(\C)C(=O)C[C@@]23O[C@]2(C)C[C@@H](O)CC3(C)C)[C@](C)(O)C1 | -8.0% | u
COc1ccc(NC(=O)c2noc3c2CSc2ccccc2-3)cc1Cl | -2.1% | -14.0%
CN1C(=O)NC(=O)/C(=C/c2ccc([N+](=O)[O-])s2)C1=O | 20.2% | i
COC(=O)/C=C1\OCc2ccccc21 | -10.1% | -6.6%
CCCOc1cccc(C(=O)NC(=S)Nc2ccccc2)c1 | -8.6% | i
CCOc1ccccc1C(=O)Nc1cccc2cccnc12 | -17.5% | i
Cn1c(=O)c2cc(NC(=O)NCCc3ccccc3)ccc2n1Cc1cccc(C(F)(F)F)c1 | u | -11.6%
CCOC(=O)C1=C(N)OC2=C(C(=O)CC(C)(C)C2)C1c1ccc(CC)s1 (configuration not stated) | -12.7% | -4.7%
CCCNC(=O)C1(CC2CC(c3ccccc3)=NO2)CCN(C(=O)OC(C)(C)C)CC1 (configuration not stated) | -19.1% | -0.6%
COc1ccc(C(=O)NCc2cc3ccccc3n2C)cc1 | -12.0% | -0.4%
COCC(=O)OCc1cc2cccc(C)c2[nH]c1=O | -4.6% | i
CC1CCCCN1C(=O)Cn1cc(C(=O)c2ccco2)c2ccccc21 (configuration not stated) | 1.5% | x
S=C(c1ccc(-c2cc(Cl)ccc2Cl)o1)N1CCCCC1 | 0.1% | -10.1%
CCN(CC)C(=O)c1sc2nc(-c3cccs3)cc(-c3ccc(Cl)cc3)c2c1N | -0.1% | -9.0%

One compound at a time, as listed above. Values in the order: VACV Venus inh	Vaccinia mCherry
Listed for `Cn1c(=O)c2cc(NC(=O)NCCc3ccccc3)ccc2n1Cc1cccc(C(F)(F)F)c1` = u	-11.6%
Listed for `CCN(CC)C(=O)c1sc2nc(-c3cccs3)cc(-c3ccc(Cl)cc3)c2c1N` = -0.1%	-9.0%
Listed for `CCOC(=O)C1=C(N)OC2=C(C(=O)CC(C)(C)C2)C1c1ccc(CC)s1` (configuration not stated) = -12.7%	-4.7%
Listed for `COCC(=O)OCc1cc2cccc(C)c2[nH]c1=O` = -4.6%	i
Listed for `COc1ccc(C(=O)NCc2cc3ccccc3n2C)cc1` = -12.0%	-0.4%

Continued:
smiles | VACV Venus inh | Vaccinia mCherry
O=C(CN1C(=O)C2C3C=CC(C3)C2C1=O)NCC1COc2ccccc2O1 (configuration not stated) | 0.8% | -11.7%
C#CCOCCOCCOCCNc1nc(N2CCN(C(=O)CCCCCCCCCCNC(=O)[C@H](CO)n3cc(CCCSC)nn3)CC2)nc(N2CCN(C(=O)CCCCCCCCCCNC(=O)[C@H](CO)n3cc(CCCSC)nn3)CC2)n1 | u | u
CCCC12CN(C(=O)c3ccco3)CC(CCC)(CN(C(=O)c3ccco3)C1)C2=O | -23.0% | i
CC(C)c1cccc(C(C)C)c1OCCn1ccnc1 | -7.6% | -21.8%
Cc1ccc2[nH]c(CSc3nnc(NC(=O)COc4ccc(F)cc4)s3)cc(=O)c2c1 | 4.6% | -6.4%
CCN(CC)S(=O)(=O)c1ccc(Cl)c(NC(=O)CCCCl)c1 | -15.0% | -16.4%
COc1ccc(CN(C(=O)c2snc(C(N)=O)c2N)C(C(=O)NC2CCCC2)c2ccco2)cc1 (configuration not stated) | -5.2% | 2.4%
Cc1oc2c(cc(NS(=O)(=O)c3ccc(Cl)cc3)c3ccccc32)c1C(=O)OCc1ccccc1 | -1.2% | -9.6%
COC(=O)C1=C(c2cc3ccccc3o2)C[C@@H]2CC[C@H]1N2C(=O)N1CCC(O)CC1 | -11.2% | i
CCOC(=O)C1CCCN(C(=O)c2cccc([N+](=O)[O-])c2C)C1 (configuration not stated) | 2.5% | -8.8%
O=C(N/N=C/c1ccc(F)cc1)c1sccc1OCc1ccc(F)cc1 | u | u
COC(=O)c1scc(-c2ccc(C)cc2)c1S(=O)(=O)Nc1cc(C)ccc1OC | -0.5% | -9.9%
Cc1cc(C(=O)c2ccc(Cl)cc2)c(NC(=O)CCl)s1 | -19.8% | u
C=CCN=c1scc(-c2ccc(F)cc2)n1/N=C/c1ccccn1 | -6.2% | -21.2%
Cc1ccc(Cc2nnc(SCC(=O)Nc3c(C)cccc3C)[nH]c2=O)cc1 | 0.3% | -6.5%
CCCCn1c(N)c(N(CC(C)C)C(=O)C(C)SCc2nc3sc(C)c(C)c3c(=O)[nH]2)c(=O)[nH]c1=O (configuration not stated) | -1.3% | -8.3%

Given as labelled records: entries from further up.
Compound: COC(=O)C1=C(c2cc3ccccc3o2)C[C@@H]2CC[C@H]1N2C(=O)N1CCC(O)CC1
  VACV Venus inh = -11.2%
  Vaccinia mCherry = i
Compound: CCOC(=O)C1CCCN(C(=O)c2cccc([N+](=O)[O-])c2C)C1 (configuration not stated)
  VACV Venus inh = 2.5%
  Vaccinia mCherry = -8.8%
Compound: O=C(N/N=C/c1ccc(F)cc1)c1sccc1OCc1ccc(F)cc1
  VACV Venus inh = u
  Vaccinia mCherry = u

(further entries)
smiles | VACV Venus inh | Vaccinia mCherry
CCOC(=O)N1CCN(Cc2cn[nH]c2-c2ccc(-c3ccccc3)cc2)CC1 | -6.6% | -9.4%
CC1(c2nnc(Cc3ccccc3)o2)CC(c2ccccc2Br)=NO1 (configuration not stated) | -13.3% | i
CCc1ccc(NC(=O)Cn2c(=O)n(CCCC(=O)NCc3ccccc3OC)c(=O)c3ccccc32)cc1 | -10.7% | -15.8%
CN(C)CCCCOc1ccccc1F | -8.7% | i
Cc1cccc(CSC2=NN3CCCC(=O)N=C3S2)c1 | -16.8% | i
Cc1ccc(N(C(=O)c2csnn2)C(C(=O)NC2CCCCC2)c2cccnc2)c(C)c1 (configuration not stated) | -2.0% | 4.7%
CN1C(C(=O)NCc2ccc(OC(F)(F)F)cc2)CC2Cn3c(nc4cc5ccccc5cc43)C21 (configuration not stated) | -15.5% | -1.1%
Cc1ccc(NC(=O)COc2ccccc2C=O)cc1Cl | -21.3% | i
COc1ccc(NC(=O)CN(c2ccc([N+](=O)[O-])cc2)S(=O)(=O)c2ccccc2)c(OC)c1 | -22.6% | -2.0%
COc1ccc(Cc2nnc(NC(=O)Nc3cccc(OC)c3)s2)cc1 | -10.1% | -11.1%
CCOc1ccccc1NC(=O)CSc1nc2c(sc3ccccc32)c(=O)n1CCCC(=O)NC1CCCC1 | -16.1% | -23.1%
CCc1sc(C(=O)Nc2ccc(F)cc2C)cc1C | -15.9% | -16.4%
CCc1ccccc1NC(=O)Cn1c(=O)n(Cc2ccccc2)c(=O)c2c(C)c(C(=O)N(C)C)sc21 | 4.0% | -11.1%
CN(CC(O)CN1CCOCC1)S(=O)(=O)O (configuration not stated) | -1.5% | i
COCCCNC(=O)Cn1nnc(-c2ccc(NC(=O)c3ccc(F)cc3)cc2)n1 | 0.6% | -5.9%
CCc1nc(N[C@H](C(=O)O)C(C)CC)c2oc3ccccc3c2n1 (some centres not stated) | -20.5% | x
